Assay outcomes (PubChem)
ID4 binder – binders of human ID4 protein, primary screen, biochemical, small molecule microarray, single point; DNA-binding protein inhibitor ID-4 (Homo sapiens), P47928; Flag-ID4 binding, fluorescence F/B; calls only; 31,000 compounds, 1.2% hits;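 active means spot signal over background at p below 0.07 in all four prints; compounds were printed on slides so no solution concentration is given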;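 further: a binder raises fluorescence above local background on the spot; about 2 pmol printed per array spot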
Target sequence (P47928 whole entry, looked up): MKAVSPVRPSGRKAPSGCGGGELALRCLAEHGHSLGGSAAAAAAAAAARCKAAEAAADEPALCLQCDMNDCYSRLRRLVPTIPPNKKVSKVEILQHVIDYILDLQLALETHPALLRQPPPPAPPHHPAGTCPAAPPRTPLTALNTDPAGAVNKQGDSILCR
mut p53 SMM – binders of human mutant p53, primary screen, biochemical, small molecule microarray, anti-GST fluorescence. mutant tumor protein p53 (GST-tagged), Homo sapiens. small molecule microarray binding. calls only. 17,000 compounds, 0.4% hits;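 active means compounds whose four printed spots each glow above background more than chance allows, each with a p-value under 7%; compounds were printed on slides so no solution concentration is given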;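 further: about 2 pmol printed per array spot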
STAT3 SMM – STAT3 binders, primary screen, biochemical, small molecule microarray, single point, set 2; Signal transducer and activator of transcription 3 (Homo sapiens), P40763; His-STAT3 binding, anti-His fluorescence; calls only; 17,000 compounds, 0.2% hits;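 active means compounds whose four printed spots each show fluorescence over background unusually high for their array block, chance value under 7%; compounds were printed on slides so no solution concentration is given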;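 further: about 2 pmol printed per array spot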
c-Myc SMM – binders of human c-Myc, primary screen, biochemical, small molecule microarray, anti-His fluorescence; His-c-Myc binding; calls only; 17,000 compounds, 1.5% hits; AID 624141, 2012;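 active means spot fluorescence over background with P-value below 7% in all four replicate spots, showing protein binding; compounds were printed on slides so no solution concentration is given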;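 further: score is binary with 100 for all four spots passing and 0 otherwise; about 2 pmol printed per array spot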
Target sequence (P01106 whole entry, looked up): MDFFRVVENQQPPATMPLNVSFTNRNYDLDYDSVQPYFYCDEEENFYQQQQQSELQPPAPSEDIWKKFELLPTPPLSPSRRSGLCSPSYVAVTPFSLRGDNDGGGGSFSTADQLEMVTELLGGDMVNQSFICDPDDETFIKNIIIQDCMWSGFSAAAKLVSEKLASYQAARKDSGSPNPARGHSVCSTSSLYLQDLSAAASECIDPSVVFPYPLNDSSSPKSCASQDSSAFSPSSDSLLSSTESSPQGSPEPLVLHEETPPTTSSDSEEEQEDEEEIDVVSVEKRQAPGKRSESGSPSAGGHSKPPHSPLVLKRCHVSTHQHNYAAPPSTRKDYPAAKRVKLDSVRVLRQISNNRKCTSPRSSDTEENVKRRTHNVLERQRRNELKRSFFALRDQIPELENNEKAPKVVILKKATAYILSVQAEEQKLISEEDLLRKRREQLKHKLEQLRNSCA
Calls only; i = inactive; . = not tested or not shown.

item	smiles	ID4 binder	mut p53 SMM	STAT3 SMM	c-Myc SMM
1	C[C@@H]1CN([C@H](C)CO)C(=O)c2cc(NC(=O)Nc3cccc4ccccc34)ccc2O[C@H]1CN(C)C(=O)NC1CCCCC1	i	i	i	i
2	CNC[C@@H]1Oc2ccc(NS(C)(=O)=O)cc2CC(=O)N([C@H](C)CO)C[C@@H]1C	i	i	i	i
3	C[C@H](CO)N1C[C@H](C)[C@H](CN(C)Cc2ccccc2)Oc2ncc(-c3cccc(C(F)(F)F)c3)cc2C1=O	i	i	i	i
4	C[C@@H]1CN([C@@H](C)CO)C(=O)Cc2cc(NC(=O)CCCN(C)C)ccc2O[C@@H]1CN(C)S(=O)(=O)c1cccs1	i	i	i	i
5	Cc1noc(C)c1NC(=O)Nc1ccc2c(c1)CC(=O)N([C@@H](C)CO)C[C@@H](C)[C@H](CN(C)S(=O)(=O)c1cn(C)cn1)O2	i	i	i	i
6	CC(=O)Nc1ccccc1NC(=O)COc1ccc(C(C)(C)C)cc1Br	i	i	i	i
7	C[C@H](CO)N1C[C@H](C)[C@@H](CN(C)C(=O)Cc2ccccc2)OCc2cn(nn2)CCCC1=O	i	i	i	i
8	Cc1ccc(C(C)C)c(OCC(=O)Nc2cccc3nsnc23)c1	i	i	i	i
9	C[C@H](CO)N1C[C@H](C)[C@H](CN(C)Cc2ccc3c(c2)OCCN3C)OCc2cn(nn2)CCCC1=O	i	i	i	i
10	O=S(=O)(N[C@H]1CCN(Cc2cccc(OCCO)c2)C1)c1ccc2ccccc2c1	.	i	i	i
11	C[C@@H]1CCCCO[C@H](CN(C)C(=O)CCC(F)(F)F)[C@@H](C)CN([C@H](C)CO)C(=O)c2cc(NS(C)(=O)=O)ccc2O1	i	i	i	i
12	C[C@H](CO)N1C[C@H](C)[C@H](CN(C)CC2CC2)Oc2ccc(NC(=O)Nc3cccc4ccccc34)cc2CC1=O	i	i	i	i
13	CC1(C)Cc2c(sc3c2c(=O)n(Cc2ccccc2)c2nnc(SCC(=O)c4ccc(Br)cc4)n32)CO1	i	i	i	i
14	C[C@@H]1CN([C@H](C)CO)C(=O)c2cc(NC(=O)C3CC3)ccc2O[C@@H]1CN(C)Cc1ccc(Cl)c(Cl)c1	i	i	i	i
15	COc1ccc([N+](=O)[O-])cc1NC(=O)C1(c2ccc(OC)c(OC)c2)CCCCC1	i	i	i	i
16	Cc1noc(C)c1S(=O)(=O)Nc1cccc2c1O[C@@H](CN(C)C(=O)NC1CCCCC1)[C@@H](C)CN([C@H](C)CO)C2=O	i	i	i	i
17	COc1ccc(-c2cnc3c(c2)C(=O)N([C@H](C)CO)C[C@H](C)[C@H](CN(C)S(=O)(=O)c2cn(C)cn2)O3)cc1	i	i	i	i
18	C[C@@H]1CN([C@H](C)CO)C(=O)c2cccc(NC(=O)C3CCCCC3)c2O[C@H]1CN(C)C(=O)Nc1ccc(F)cc1	.	i	i	i
19	C[C@H](CO)N1C[C@H](C)[C@@H](CN(C)S(=O)(=O)c2cn(C)cn2)Oc2c(NC(=O)c3ccc(-c4nccs4)cc3)cccc2C1=O	i	i	i	i
20	Nc1ncnc2c1cnn2-c1ccccc1	i	i	i	i
21	NC[C@@H]1O[C@H](C23CC4CC(CC(C4)C2)C3)Cc2c1ccc(O)c2O	i	i	i	i
22	CC(=O)C1=C(C)N(CC2CCCO2)C(=O)C1(NC(=O)c1ccc(C(C)(C)C)cc1)C(F)(F)F (configuration not stated)	i	i	i	i
23	C[C@@H]1CCCCO[C@@H](CN(C)Cc2ccccc2)[C@@H](C)CN([C@H](C)CO)C(=O)c2cc(NS(C)(=O)=O)ccc2O1	i	i	i	i
24	Cc1nnc(SCc2ccon2)n1-c1ccccc1	i	i	i	i
25	O=C1C[C@H](c2ccc(O)cc2)Oc2c1c(O)cc(O)c2[C@@H]1C(=O)c2c(O)cc(O)cc2O[C@H]1c1ccc(O)cc1	.	i	i	i
26	C[C@@H]1CN([C@H](C)CO)C(=O)c2cc(NC(=O)NC3CCCCC3)ccc2O[C@@H]1CN(C)S(=O)(=O)c1ccc(Cl)cc1	i	i	i	i
27	COc1cc(C[C@H]2COC(=O)[C@@H]2Cc2ccc(O)c(OC)c2)ccc1O	.	i	i	i
28	O=C1N(CCS(=O)(=O)c2ccccc2)Cc2ccccc2[C@H]2OC(c3ccc(OCCCO)cc3)=N[C@@]12CCS(=O)(=O)c1ccccc1	i	i	i	i
29	C[C@H]1CCCCO[C@@H](CN(C)Cc2ccncc2)[C@@H](C)CN([C@@H](C)CO)C(=O)c2cc(NC(=O)Nc3ccc(F)cc3)ccc2O1	i	i	i	i
30	C[C@@H]1CN([C@@H](C)CO)C(=O)c2cc(NC(=O)Nc3cccc4ccccc34)ccc2O[C@@H](C)CCCCO[C@@H]1CN(C)C	i	i	i	i

An excerpt of these results, screen by screen:
[15] COc1ccc([N+](=O)[O-])cc1NC(=O)C1(c2ccc(OC)c(OC)c2)CCCCC1
[14] C[C@@H]1CN([C@H](C)CO)C(=O)c2cc(NC(=O)C3CC3)ccc2O[C@@H]1CN(C)Cc1ccc(Cl)c(Cl)c1
Assay by compound,15,14
ID4 binder,i,i
mut p53 SMM,i,i
STAT3 SMM,i,i
c-Myc SMM,i,i

Further records.
item	smiles	ID4 binder	mut p53 SMM	STAT3 SMM	c-Myc SMM
31	C[C@@H]1CCCCO[C@@H](CN(C)C)[C@@H](C)CN([C@@H](C)CO)C(=O)c2cc(NS(=O)(=O)c3cn(C)cn3)ccc2O1	i	i	i	i
32	COc1ccc(CN(C)C[C@H]2Oc3c(NC(=O)NC(C)C)cccc3C(=O)N([C@@H](C)CO)C[C@@H]2C)cc1	i	i	i	i
33	CC(C)OC(=O)CSc1nc(-c2ccccc2)cc(C(F)(F)F)c1C#N	i	i	i	i
34	Cc1cc(=O)oc2cc(NC(=S)NCc3ccccn3)ccc12	i	i	i	i
35	C[C@@H]1CN([C@@H](C)CO)C(=O)Cc2cc(NC(=O)NC3CCCCC3)ccc2O[C@H]1CN(C)Cc1ccc(Oc2ccccc2)cc1	.	i	i	i
36	CC1OC(Oc2ccc(-c3cc(=O)c4c(O)cc(OC5OC(CO)C(O)C(O)C5O)cc4o3)cc2)C(O)C(O)C1O (configuration not stated)	i	i	i	i
37	O=C(Nc1cccc2ccccc12)c1ccccc1NS(=O)(=O)c1cccc2cccnc12	i	i	i	i
38	O=C(Cn1nc(-c2ccccc2)c2ccccc2c1=O)Nc1ccc(O)cc1	i	i	i	i
39	C[C@@H]1CN([C@@H](C)CO)C(=O)c2cccc(NS(=O)(=O)c3cn(C)cn3)c2O[C@H]1CN(C)S(=O)(=O)c1cn(C)cn1	i	i	i	i
40	Cc1sc2nc(SCc3n[nH]c(=S)n3-c3ccccc3)nc(N)c2c1C	i	i	i	i
41	CCOc1ccc2nc(NS(=O)(=O)c3ccc4c5c(cccc35)C(=O)N4)sc2c1	i	i	i	i
42	C[C@H](CO)N1C[C@H](C)[C@@H](CN(C)C(=O)Nc2ccccc2)OCCCC[C@H](C)Oc2ccc(N(C)C)cc2C1=O	i	i	i	i
43	C[C@@H]1CN([C@@H](C)CO)C(=O)CCCn2cc(nn2)CO[C@@H]1CN(C)S(=O)(=O)c1ccc2c(c1)OCCCO2	i	i	i	i
44	C[C@@H]1CN([C@@H](C)CO)C(=O)c2cc(NC(=O)Nc3ccccc3)ccc2O[C@H]1CN(C)C	.	i	i	i
45	Cn1c(SCC(=O)N2c3ccccc3CCc3ccccc32)nnc1-c1ccc(Cl)cc1Cl	i	i	i	i
46	CC(C)NC(=O)N(C)C[C@H]1OCCCC[C@H](C)Oc2ccc(NC(=O)Nc3ccccc3)cc2C(=O)N([C@@H](C)CO)C[C@H]1C	i	i	i	i
47	NS(=O)(=O)c1ccc(CNC(=O)c2cc(-c3cccnc3)nc3ccc(Br)cc23)cc1	i	i	i	i
48	Cc1noc(C)c1NC(=O)N(C)C[C@@H]1Oc2ccc(NC(=O)c3ccncc3)cc2CC(=O)N([C@H](C)CO)C[C@H]1C	i	i	i	i
49	C[C@@H]1CCCCO[C@@H](CN(C)Cc2ccc(C(=O)O)cc2)[C@@H](C)CN([C@H](C)CO)C(=O)c2cc(NC(=O)c3ccncc3)ccc2O1	i	i	i	i
50	C[C@H]1C=C(C(=O)Nc2ccccc2)O[C@@H](OCc2ccc(CO)cc2)C1	.	i	i	i
51	COc1cc(C2C(C(=O)c3cccs3)C(=O)C(=O)N2Cc2ccco2)cc(OC)c1OC (configuration not stated)	i	i	i	i
52	Cc1noc(C)c1NC(=O)Nc1ccc2c(c1)C(=O)N([C@@H](C)CO)C[C@@H](C)[C@H](CN(C)C(=O)Nc1c(C)noc1C)OCCCC[C@H](C)O2	i	i	i	i
53	COc1ccc(NC(=O)CN(c2ccc(OC)c(Cl)c2)S(C)(=O)=O)cc1Cl	i	i	i	i
54	COc1ccc(Cl)cc1NC(=O)Nc1cc(C)nc2ccccc12	i	i	i	i
55	C=C1CC[C@H]2C(=C)CC[C@@]3(O)C(=C)C(=O)O[C@@H]3[C@@H]12	.	i	i	i
56	Fc1ccc(N2CCN(CCC3OCCc4ccccc43)CC2)cc1 (configuration not stated)	i	i	i	i
57	C[C@@H]1CN([C@H](C)CO)C(=O)Cc2cc(NC(=O)Nc3cccc4ccccc34)ccc2O[C@@H]1CN(C)Cc1ccncc1	i	i	i	i
58	Cn1c(SCC(=O)c2cc3ccccc3o2)nnc1-c1ccccc1	i	i	i	i
59	C[C@H](CO)N1C[C@H](C)[C@@H](CN(C)S(=O)(=O)c2cn(C)cn2)Oc2c(NS(=O)(=O)c3cn(C)cn3)cccc2C1=O	i	i	i	i
60	C[C@H](CO)N1C[C@H](C)[C@H](CN(C)C(=O)CCC(F)(F)F)OCCCC[C@H](C)Oc2ccc(NC(=O)Cc3ccccc3)cc2C1=O	i	i	i	i

Some of these compounds in order of molecular weight, lowest first:
item	smiles	ID4 binder	mut p53 SMM	STAT3 SMM	c-Myc SMM
58	Cn1c(SCC(=O)c2cc3ccccc3o2)nnc1-c1ccccc1	i	i	i	i
48	Cc1noc(C)c1NC(=O)N(C)C[C@@H]1Oc2ccc(NC(=O)c3ccncc3)cc2CC(=O)N([C@H](C)CO)C[C@H]1C	i	i	i	i
46	CC(C)NC(=O)N(C)C[C@H]1OCCCC[C@H](C)Oc2ccc(NC(=O)Nc3ccccc3)cc2C(=O)N([C@@H](C)CO)C[C@H]1C	i	i	i	i

Following part
item	smiles	ID4 binder	mut p53 SMM	STAT3 SMM	c-Myc SMM
61	O=C(OCc1cccc(O)c1O[C@@H]1O[C@H](CO)[C@@H](O)[C@H](O)[C@H]1O)C1(O)C(=O)C2C=CC1C1C=CC(=O)C(O)(C(=O)OCc3cccc(O)c3O[C@@H]3O[C@H](CO)[C@@H](O)[C@H](O)[C@H]3O)C21 (some centres not stated)	i	i	i	i
62	CC1(C)CCC2(C(=O)OC3OC(COC4OC(CO)C(O)C(O)C4O)C(O)C(O)C3O)CCC3(C)C(=CCC4C5(C)CCC(OC6OCC(O)C(O)C6O)C(C)(C)C5CCC43C)C2C1O (configuration not stated)	.	i	i	i
63	CNC[C@H]1OCCCC[C@@H](C)Oc2ccc(NS(=O)(=O)c3c(C)noc3C)cc2C(=O)N([C@H](C)CO)C[C@H]1C	i	i	i	i
64	C[C@H](CO)N1C[C@H](C)[C@@H](CN(C)S(=O)(=O)c2ccc(Cl)cc2)OCc2cn(nn2)CCCC1=O	i	i	i	i
65	Cc1cc(C)nc(N(C#N)Cc2cccc([N+](=O)[O-])c2)n1	i	i	i	i
66	C[C@H](CO)N1C[C@H](C)[C@H](CN(C)S(=O)(=O)c2ccc(F)cc2)Oc2ccc(NC(=O)Nc3ccccc3)cc2CC1=O	.	i	i	i
67	C[C@H]1CN([C@@H](C)CO)C(=O)CCCn2cc(nn2)CO[C@@H]1CN(C)C(=O)OCc1ccccc1	i	i	i	i
68	Cc1ccc(-n2c3c(cc(C(=O)NCCCN4CCOCC4)c2=O)C(=O)CCC3)cc1	i	i	i	i
69	C[C@@H]1CN([C@H](C)CO)C(=O)c2cccc(NS(=O)(=O)c3ccc(F)cc3)c2O[C@@H]1CN(C)Cc1ccc(C(F)(F)F)cc1	i	i	i	i
70	Cc1noc(C)c1S(=O)(=O)Nc1cccc2c1O[C@H](CN(C)Cc1ccc(C(=O)O)cc1)[C@@H](C)CN([C@@H](C)CO)C2=O	i	i	i	i
71	Cc1noc(C)c1S(=O)(=O)N(C)C[C@H]1Oc2ccc(NC(=O)NC(C)C)cc2CC(=O)N([C@H](C)CO)C[C@@H]1C	i	i	i	i
72	C[C@@H]1CCCCO[C@@H](CN(C)C(=O)c2ccncc2)[C@@H](C)CN([C@H](C)CO)C(=O)c2cc(N(C)C)ccc2O1	i	i	i	i
73	COC(=O)c1cccc(NC(=O)CSc2nc(C)cc(C(F)(F)F)n2)c1	i	i	i	i
74	Cc1cc(C)nc(SCc2noc(-c3ccc(Cl)cc3)n2)n1	i	i	i	i
75	CCN(CC(=O)Nc1cc(C(F)(F)F)ccc1Cl)S(=O)(=O)c1ccc(Cl)cc1	i	i	i	i
76	C[C@H](CO)N1C[C@H](C)[C@H](CN(C)C)OCCCC[C@H](C)Oc2ccc(NS(=O)(=O)c3ccc(Cl)cc3)cc2C1=O	i	i	i	i
